Assay outcomes: PubChem BioAssay, National Center for Advancing Translational Sciences (NCATS)
TRPV1 PAM: enhances activation of the human vanilloid receptor TRPV1; Q8NER1; TRPV1-expressing cells, Fluo-8 calcium influx, capsaicin EC20 potentiation; host cell line not named in the record; control for the full effect not named in the record; potentiation, % at 8.33 µM; hit rate 0.02% among 320,000; active means potentiation above 80%; inconclusive means 30% to 80%; inactive means below 30%; note: 0% is about no effect
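TRPV1-expressing cells were cultured overnight at 35.5C and loaded with Fluo-8 calcium dye for 40 to 90 min at room temperature. After a 10 s baseline, compound was added and calcium influx was read kinetically for 3 min (ex 480/em 520 nm).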
gsp antagonist: gsp mutant antagonism. Potency, µM (series often up to 76.9 µM), for inactives: top-dose activity change, negative = inhibition, usual class: inhibitors. hit rate 0.4% among 340,000. AID 624288. gsp-mutant cells, cAMP HTRF, 30 min; control for the full effect not named in the record; active = falling curve of any shape with a large fitted effect; inconclusive = falling curve, mostly with a smaller effect; inactive = flat or rising curve; cell line not stated here;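 note: intracellular cAMP measured with PDE inhibitor Ro 20-1724 present during compound exposure; potency is the fitted concentration of half-maximal effect; % is set by controls: 0 for no effect and ±100 for the full control effect; nearly all actives have a fitted effect of over 65% in size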
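G418-selected cells were plated in DMEM/10% FBS for 16-24 h at 37C, then treated with compounds plus the PDE inhibitor […] (300 uM solution added) for 30 min at 37C. Intracellular cAMP was measured by HTRF after 30 min lysis at room temperature.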
Menin-MLL FL inh: displaces fluorescein MLL peptide from human menin. Fluorescence polarization, fluorescein-MLL peptide displacement from menin. FP activity change, % at 61.4 µM. 290,000 tested, under 10 active. AID 1766; inconclusive = falling polarisation curve, or a change in total fluorescence; inactive = total fluorescence flat and polarisation flat or rising; no compound was filed as active; the % refers to the polarisation; negative = inhibition;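 note: % of control where 0% means no effect; inhibitors lower the polarisation; unlabelled MLL peptide was the positive control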
gsp agonist: activates gsp, the McCune-Albright syndrome mutation. AID 624287. hit rate 0.13% among 340,000. gsp mutant cells, cAMP HTRF, 30 min; control for the full effect not named in the record. Potency, µM (highest dose often 76.9 µM), for inactives: at the highest dose activation (cAMP increase), usual class: activators; active = well fitted activation curve with a large enough effect; inconclusive = small, poorly fitted or top-dose-only effect, or another doubt; inactive = no such curve, though single readings can be large or run the other way; cell line not stated here;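 note: phosphodiesterase inhibitor Ro 20-1724 added with compounds to block cAMP breakdown; potency is the fitted concentration of half-maximal effect; nearly all actives have a fitted effect of over 60% in size; about a fifth of the inactives were tested at one dose only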
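Cells stably selected in G418 were plated at 2000/well, grown 16-24 hr, then given compounds in DMSO with the PDE inhibitor […] (300 uM solution added) for 30 min at 37C; cAMP was read by HTRF.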
ClpP mod: qHTS Assay for Activators of ClpP; Potency, µM (top dose mostly 57.5 µM), without a hit: at the top dose activity change, negative = active; AID 651965, 2013; hit rate 1.9% among 340,000; ATP-dependent Clp protease proteolytic subunit (Bacillus subtilis (strain 168)), P80244; purified B. subtilis ClpP, FRET peptide cleavage, 20 min; active = well fitted falling curve with a large enough effect; inconclusive = small, poorly fitted or top-dose-only effect; inactive = no such curve, though single readings can be large or run the other way; note: potency is the fitted concentration of half-maximal effect; the source files actives as falling curves though it sought activators and does not explain the sign; nearly all actives have a fitted effect of over 65% in size; many hits overshoot -100%
Target sequence (P80244 whole entry, looked up): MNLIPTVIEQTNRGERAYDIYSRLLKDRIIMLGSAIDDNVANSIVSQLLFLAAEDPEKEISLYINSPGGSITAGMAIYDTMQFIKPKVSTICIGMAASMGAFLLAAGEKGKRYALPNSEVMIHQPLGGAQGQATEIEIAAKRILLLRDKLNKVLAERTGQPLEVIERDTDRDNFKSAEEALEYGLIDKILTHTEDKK
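ClpP 10 microg/mL final, pH 8 Tris/KCl buffer with BSA, glycerol, Tween-20; compound pinned in; FRET-FV substrate; RT 20 min; Ex320/Em430; ΔFRET vs ADEP 5.8 microM, DMSO, no enzyme.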
Sfp PPTase inh: Sfp phosphopantetheinyl transferase inhibition; Biochemical Sfp PPTase activity, qHTS; Potency, µM, without a hit: max response, negative = inhibition, usual class: inhibitors; hit rate 3.5% among 310,000; active = well fitted inhibition curve with a large enough effect; inconclusive = small, poorly fitted or top-dose-only effect, or another doubt; inactive = no such curve, though single readings can be large or run the other way;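 note: the enzyme is Sfp with the accession as filed and its product quenches rhodamine fluorescence; potency is the fitted concentration of half-maximal effect; 0% = enzyme reaction without inhibitor and -100% = no enzyme wells; top concentration of the series not given in the record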
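Fluorescence-quenching assay: 15 nM Sfp-PPTase preincubated 15 min at room temperature with compound, then 5 uM rhodamine-CoA and 12.5 uM BHQ-2-labelled YbbR peptide added. Fluorescence (ex 525/em 598 nm) read at start and after 30 min; difference gives rate.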
D2 potentiator: potentiates the human D2 dopamine receptor allosterically; P14416; DiscoveRx D2 beta-arrestin cells, luminescence, 90 min; 100% = 57 uM dopamine signal; potentiation, % (concentration not given with the values); hit rate 0.23% among 360,000; AID 624464; active = potentiation of 50% or more; inconclusive = 30% to 50%; inactive = 30% or less;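 note: compound concentration not given in the record; tested on top of an EC20 dose of dopamine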
Target sequence (P14416 whole entry, looked up): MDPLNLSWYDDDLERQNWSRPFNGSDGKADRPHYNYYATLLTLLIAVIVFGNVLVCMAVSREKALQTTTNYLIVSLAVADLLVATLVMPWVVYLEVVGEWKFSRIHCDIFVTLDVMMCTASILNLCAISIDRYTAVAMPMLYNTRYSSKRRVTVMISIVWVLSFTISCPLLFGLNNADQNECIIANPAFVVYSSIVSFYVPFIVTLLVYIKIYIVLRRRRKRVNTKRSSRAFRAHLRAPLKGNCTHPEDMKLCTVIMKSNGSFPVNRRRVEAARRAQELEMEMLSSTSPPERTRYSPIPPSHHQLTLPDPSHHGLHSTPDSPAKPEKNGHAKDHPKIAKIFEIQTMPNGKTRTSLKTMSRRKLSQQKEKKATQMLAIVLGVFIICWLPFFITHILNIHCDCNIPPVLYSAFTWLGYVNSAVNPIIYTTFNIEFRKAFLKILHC
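PathHunter beta-arrestin assay in DiscoveRx D2 cells. Compounds were added with an EC20 of dopamine (50 nM final) for 90 min at 37 deg C. Luminescence was read 1 h after detection reagent, with 57 uM dopamine as the EC100 control.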
Active calls of the source: *; ? = inconclusive; . = not tested or not shown; & = joins results of further samples; [ ] = another dose, or the depositor's remark.

SMILES	TRPV1 PAM	gsp antagonist	Menin-MLL FL inh	gsp agonist	ClpP mod	Sfp PPTase inh	D2 potentiator
CCN(CC)C(=O)Cn1c(=O)n(CCCCCC(=O)Nc2ccccc2)c(=O)c2sccc21	-5.4	-3.7%	0.1	-3.1%[15.4 µM]	0.3%&-0.9%	31.5%[activator]	-12.2
COc1ccccc1C(c1nnnn1CC1CCCO1)N1CCN(c2ccccc2)CC1 (stereo not given)	6.1	2.9%	0.7	-9.2%	.	-10.1%	-8.5
COC(=O)c1ccc(C2/C(=C(/O)c3ccc4c(c3)CC(C)O4)C(=O)C(=O)N2CCN2CCOCC2)cc1 (stereo not given)	-6.2	16.0%	1.8	0.8%	1.5%	-8.0%	-9.1
Cc1ccnc(NC(=O)CCC2COc3ccccc3O2)c1 (stereo not given)	-8.9	4.5%	2.3	23.9%	-1.0%	12.1%	-6.7
CN(C)c1nc(NCc2ccccc2)nc(N/N=C/c2cccc(Br)c2)n1	0.4	-13.7%	-0.1	4.2%[15.4 µM]	.	-4.3%	-12.0
COc1cc(NS(=O)(=O)c2ccc(NS(=O)(=O)c3ccc(NC(C)=O)cc3)cc2)nc(OC)n1	3.5	10.1%	.	0.4%[15.4 µM]	.	15.7%	-1.3
COc1ccc(/C(CC2(O)C(=O)Nc3ccccc32)=N\O)cc1 (stereo not given)	17.4	-12.5%	-2.1	-40.9%[inhibitor]	-6.2%	-2.5%	0.1
Cc1cc(C)cc(OCc2ccc(C(=O)NC3CCOC3=O)o2)c1 (stereo not given)	16.5	-0.1%	9.2	-11.0%[15.4 µM]	.	-8.2%	8.0
O=C(CSc1nc(-c2ccccc2)c(-c2ccccc2)o1)Nc1nncs1	20.6	-13.5%	0.7	6.0%	-25.6%	19.1%	1.4
CCCn1nnnc1NCc1ccc(C(C)C)cc1	-14.3	-6.4%	1.0	-1.9%[15.4 µM]	-11.2%	2.0%	-36.9
C[C@H](CO)N1C[C@H](C)[C@@H](CN(C)Cc2ccc(Cl)c(Cl)c2)Oc2ccc(NC(=O)Cn3cnnn3)cc2C1=O	.	2.8%	.	11.6%	-4.2%	.	-14.6
COc1cccc(/C=C/C(=O)OCC(=O)N2CCN(c3ccccc3)CC2)c1	25.7	-8.9%	.	?	4.0%	.	-3.6
CCCc1[nH]nc2c1C(c1cccc(OC)c1)C(C#N)=C(N)O2 (stereo not given)	-1.1	7.5%	3.3	?	-1.2%	?	-4.6
Brc1ccccc1-n1nnc(-c2ccnc3ccccc23)n1	2.2	-5.2%	-6.0	4.1%	-3.5%	-17.3%	-8.6
COc1cc(CNCCNC(=O)c2cccs2)cc(OC)c1OC	-8.9	7.3%	-3.0	-26.7%	-1.0%	-15.0%	-6.7
COc1ccccc1N(CC(=O)NC1CCCCC1)S(=O)(=O)c1cccs1	-11.0	-9.9%	4.3	-12.1%	-1.3%	7.0%	-13.5
C=CCNC(=O)C1CC(=O)N(c2ccc(Br)cc2)C1 (stereo not given)	18.3	-1.1%	-1.7	10.1%	0.7%	9.1%	-2.4
CC(=O)C(Sc1ccc2nnc(-c3cccnc3)n2n1)C(C)=O	20.1	17.7%	0.8	29.3%	1.5%	-13.0%	-7.4
O=c1[nH]c(S)c(/C=C2\C=Nc3ccccc32)s1	4.2	-26.1%	?	-0.2%	0.7%	?	-12.2
CC(=O)N1CCC(N2CCN(Cc3ccc(C)cc3)C(CCO)C2)CC1 (stereo not given)	2.5	5.4%	-3.5	0.8%[15.4 µM]	0.2%	19.5%	-6.4
Cn1c(COc2ccccc2)nnc1SCC(=O)c1cccc([N+](=O)[O-])c1	12.7	-0.9%	4.8	23.5%	0.5%	2.4%	-1.4
CCCCCOC(=O)C1=C(C)Nc2nnnn2C1c1ccc(OC)c(OC)c1OC (stereo not given)	-16.2	-10.8%	3.5	7.4%	0.5%	4.9%	2.0
CC(C)n1nnnc1SCC(=O)Nc1ccc2c(c1)OCO2	-19.4	4.2%	0.7	1.8%	2.3%	8.4%	-1.2
Cc1ccc(-n2c([S-])c(C(=O)Nc3ccc(OC(F)F)cc3)[n+]3ccc(C(=O)NCCO)cc23)cc1C	-1.2	?	-3.1	32.5%	-1.5%	?	-6.8
CC(C)c1ccc(CN2CCSCC2)cc1	-30.2	-10.4%	1.3	1.3%[15.4 µM]	-2.2%	-16.4%	-11.7
CCc1ccccc1OCC(=O)OCC(=O)N1CC(=O)Nc2ccccc21	-7.8	-2.6%	-2.3	6.2%	-1.7%	4.8%	3.5
N#Cc1ccccc1N=Cc1ccc(Br)cc1	1.1	-0.3%	-0.4	-22.4%	-3.8%	14.6%	-0.9
Nc1nnc(-c2ccc(Cl)cc2)o1	1.9	11.1%	-3.0	-0.2%	3.5%	13.0%	1.7
CCN1C(=O)[C@H]2[C@H]3CN=C(SCC(=O)c4ccccc4)N3[C@@](CC)(C(=O)OC)[C@H]2C1=O	.	6.9%	.	.	-1.7%	.	-9.2
CCOc1ccc2oc(C(=O)N(CC)CC(=O)Nc3ccc(NC(C)=O)cc3)c(C)c2c1	15.0	-3.5%	.	-36.5%[inhibitor]	-15.9%	.	-19.3
COc1cc(NC(=S)NC(C)(C)C)c(OC)cc1Cl	-3.1	-1.3%	2.1	-20.7%	1.0%	-26.1%	-4.0
Cc1ccc(S(=O)(=O)NC(=O)c2cc(C)n(-c3ccccc3)c2C)cc1	7.7	-2.6%	-3.5	-7.6%	-1.2%	34.8%[activator]	0.4
O=C(NC1CCCCC1)c1ccc(Br)o1	-7.1	1.1%	1.9	-44.6%[inhibitor]	-0.7%	6.6%	-4.5
COc1cc(N/N=C/c2ccc(N(C)C)cc2)ncn1	?	-3.5%	0.8	1.4%	4.1%	1.8%	?
CCCCOc1c(Br)cc(CNCCCN2CCOCC2)cc1OC	?	1.4%	-1.3	-3.1%[15.4 µM]	0.3%	-19.8%	-3.9
CCN(CC(=O)Nc1c(F)cccc1F)C(=O)c1cnccn1	0.0	8.1%	.	3.0%	0.4%	.	8.2
CCCCNCCOCCOc1ccc(C)cc1[N+](=O)[O-]	15.1	9.8%	-0.1	12.0%	-2.6%	2.6%	-15.9
CC(C)(C)NC(=O)CSc1nnc(-c2ccccc2)c(-c2ccccc2)n1	3.8	?	-1.1	-5.4%	-3.0%	-1.6%	-5.0
CCOC(=O)N1CCN(c2nc(-c3ccco3)cc(C(F)(F)F)n2)CC1	-21.8	0.4%	3.0	-0.8%	2.6%	0.3%	-5.1
O=C1NC[C@@H](Cc2cccc3ccccc23)N(CCCCC2CCCCC2)C1=O	14.1	-3.1%	.	.	-0.3%	.	-21.8
CN(C)S(=O)(=O)c1ccc(C(=O)Nc2ccccc2OC(F)(F)C(F)F)cc1	3.9	-17.3%	0.9	-21.4%	0.3%	22.3%	-11.4
CN(C)/C=N/c1ncc(C(=O)OC(C)(C)C)s1	19.5	-1.8%	-2.0	14.7%[15.4 µM]	.	-1.9%	1.5
COc1ccccc1C(=O)NCCC(=O)N1CCN(C(=O)c2ccco2)CC1	-11.6	-1.0%	.	-8.3%	-2.9%	.	-2.9
CCCn1c(SCC(=O)c2ccc3c(c2)OCCO3)nc2c1c(=O)n(C)c(=O)n2C	15.8	5.3%	2.4	-13.0%	0.3%	8.7%	1.8
COc1cc(CNC(C)c2ccccc2)cc(Br)c1OCc1ccc(F)cc1 (stereo not given)	10.4	-1.9%	0.5	-53.3%[inhibitor]	.	?	-4.5
O=C(CSc1nnc2ccccn12)NNC(=O)c1ccc(Cl)cc1	1.6	6.7%	1.4	-30.7%[inhibitor]	.	14.7%	-1.2
Cc1ccc(NC(=O)CC(NCC2CCCO2)C(=O)O)cc1C (stereo not given)	-5.0	0.5%	-4.1	-6.3%	.	-17.7%	-2.9
COC(=O)Cc1[nH]n(-c2nc3ccccc3s2)c(=O)c1C(C)=Nc1ccc(Cl)cc1	6.7	5.5%	4.0	8.8%	-0.8%	79.4µM*	-8.1
CCCCNC(=S)N/N=C/C1=CCC2CC1C2(C)C (stereo not given)	-3.5	-0.9%	1.2	-17.5%[15.4 µM]	1.5%	26.3%	-12.1
COc1ccc(Cc2nc3ccc(C(=O)N4CCOCC4)cc3o2)cc1	10.1	16.7%	.	-10.9%[15.4 µM]	1.3%	10.8%	12.4
O=C(Nc1nnc(-c2ccc3c(c2)CCCC3)o1)C1COc2ccccc2O1 (stereo not given)	6.5	-8.9%	3.0	23.6%	-6.1%	10.2%	-11.5
COc1ccc(NC(=O)CN(C)C(C)C(=O)NC(=O)NC2CCCCC2)cc1 (stereo not given)	1.5	2.3%	.	-17.1%	-2.0%	-14.5%	-4.1
CCC(C)NC(=O)Cn1cccc1C(=O)c1ccccc1 (stereo not given)	8.3	6.4%	1.2	4.4%	-0.2%	-5.6%	-0.9
Cc1cccc2c3c([nH]c12)CCN(C)C3	-5.1	2.4%	-4.9	1.1%	-6.7%	2.7%	-23.7
Cc1c(Cl)cccc1NC(=O)NCc1ccncc1	-7.2	-15.5%	14.1	-6.7%	0.7%	22.1%	-4.1
Cc1ccc(-c2ccc(=O)n(Cc3cccc(Br)c3)n2)cc1	-8.7	-4.9%	2.5	20.5%	.	-29.6%	-15.0
Cc1csc(NC(=O)c2cc(C)oc2C)n1	1.4	-18.5%	2.7	16.0%	-2.4%	10.2%	-2.0
COc1ccccc1CC(NC(C)=O)C(=O)NC1CCN(C(=O)Nc2cccc(F)c2)CC1 (stereo not given)	13.5	9.8%	-3.8	0.8%[15.4 µM]	.	3.9%	-10.5
CCOc1cc(CNC(C)(C)CO)cc(Br)c1OCc1ccc(Cl)cc1Cl	-17.0	12.4%	0.6	-26.4%	1.3%	44.7µM*	-9.3
Cc1ccc[n+](C(C)C(=O)c2ccc(-c3ccccc3)cc2)c1 (stereo not given)	3.2	11.9%	3.5	5.0%	-27.6%	1.9%	-11.5
